High-throughput results: PubChem BioAssay, Johns Hopkins Ion Channel Center
KCNQ2 inh: KCNQ2 channel blockers in CHO-K1 cells – cell-based, FluxOR thallium flux, B-score, primary screen (AID 2156); O88943; 20 min; active compounds read low; only compounds with negative scores are shown here; some inactives read as strong as hits; B-score at 10 µM; hit rate 1.1% among 310,000;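 active = fluorescence ratio B-score at most minus 3 library SDs, with starting brightness B-score within 2 library SDs, cut at about -5.5 in these data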
Target sequence (O88943 whole entry, looked up): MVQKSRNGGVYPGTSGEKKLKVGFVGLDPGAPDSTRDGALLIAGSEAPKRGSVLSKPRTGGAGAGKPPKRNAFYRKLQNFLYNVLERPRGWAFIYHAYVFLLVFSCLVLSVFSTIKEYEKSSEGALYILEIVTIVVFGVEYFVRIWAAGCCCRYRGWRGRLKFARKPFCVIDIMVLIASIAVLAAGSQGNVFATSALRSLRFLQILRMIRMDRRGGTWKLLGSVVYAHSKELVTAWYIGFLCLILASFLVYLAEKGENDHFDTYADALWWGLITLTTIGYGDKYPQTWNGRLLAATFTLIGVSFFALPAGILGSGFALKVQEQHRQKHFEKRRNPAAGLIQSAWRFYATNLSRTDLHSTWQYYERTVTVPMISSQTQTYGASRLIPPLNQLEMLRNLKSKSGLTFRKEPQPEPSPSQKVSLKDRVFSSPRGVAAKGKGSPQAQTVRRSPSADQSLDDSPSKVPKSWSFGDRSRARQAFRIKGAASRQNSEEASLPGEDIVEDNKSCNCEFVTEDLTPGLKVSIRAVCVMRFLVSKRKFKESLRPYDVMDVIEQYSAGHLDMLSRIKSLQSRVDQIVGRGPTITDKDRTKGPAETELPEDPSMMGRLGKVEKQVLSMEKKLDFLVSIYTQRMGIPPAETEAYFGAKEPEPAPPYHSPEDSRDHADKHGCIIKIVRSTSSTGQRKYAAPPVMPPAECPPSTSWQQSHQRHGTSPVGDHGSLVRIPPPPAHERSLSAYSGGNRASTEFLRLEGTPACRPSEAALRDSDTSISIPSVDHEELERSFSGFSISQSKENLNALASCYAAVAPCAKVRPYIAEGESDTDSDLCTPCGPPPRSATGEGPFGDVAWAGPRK
KCNQ2 inh baseline: recorded beside KCNQ2 inh, whose call it bears; B-score; measured here: initial fluorescence intensity artifact check;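 brightness before thallium and not channel activity; 0 = typical well and far values either way flag optical interference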
Starred values were filed as active, the others as inactive; i = inactive. A portion of the library (hit frequency here may not be typical).

KCNQ2 inh baseline,KCNQ2 inh,Molecule
0.04,i,COCCNC(=O)CSc1nc2cc3c(cc2c(=O)n1CCCC(=O)NCc1ccc(OC)cc1)OCO3
0.34,i,COc1ccc(C(=O)N2CCN(C3CCC(c4ccccc4)CC3)CC2)cc1OC (stereo not drawn)
-1.53,i,CN1CCC(NC(=O)Cc2c(F)cccc2Cl)CC1
1.12,i,Cc1ccc(SCc2c(C(=O)N/N=C/c3ccoc3)nnn2-c2nonc2N)cc1
3.32,i,O=C1C2CCCN2C(c2ccc(F)cc2)N1c1cccc(Cl)c1 (stereo not drawn)
0.34,i,O=c1c2ccccc2nnn1CSc1nnc(-c2cccnc2)n1-c1ccccc1F
2.04,i,Cc1ccc(S(=O)(=O)N2CCCCC2)cc1NC(=O)c1ccc2ccccc2n1
1.13,i,CC(C)(C)c1ccc(C2/C(=C(\O)c3ccc4c(c3)OCCO4)C(=O)C(=O)N2CCCN2CCOCC2)cc1 (stereo not drawn)
0.27,i,O=C(c1ccccc1F)N1CCOCC1
2.25,i,COc1ccc(NC(=S)N(Cc2cccnc2)Cc2ccco2)cc1
-1.19,i,CCN1CCN(C(=O)c2cc3nc(-c4ccccc4)cc(C(F)(F)F)n3n2)CC1
1.33,i,C[C@H]1C=C(C(=O)NCc2nc3ccccc3[nH]2)O[C@@H](OCCCCO)C1
-0.01,i,CCCCNc1nc(CC(C)=O)ns1
-0.21,i,COc1ccc(S(=O)(=O)N2CCC(C(=O)N[C@H](C(=O)N3CCCC3)C(C)C)CC2)cc1
0.24,i,Clc1ccc(-c2csc3ncnc(N4CCc5ccccc5C4)c23)cc1
-0.03,i,COc1cc(N=c2ssnc2Cl)c(OC)cc1Cl
3.49,i,NCCNC(=O)c1c(O)c2cccc3c2n(c1=O)CCC3
0.15,i,O=C(COC(=O)/C=C/c1cc(Br)ccc1F)Nc1ccc2[nH]c(=O)[nH]c2c1
0.14,i,CSCc1nc2scc(-c3ccccc3)c2c(=O)[nH]1
-0.26,i,COc1cc([N+](=O)[O-])cc(/C=N/NC(=O)c2cncc(Br)c2)c1O
-0.91,i,COc1ccc(CC(=O)OCC(=O)N2N=C(c3ccccc3)CC2c2ccc(OC)cc2)cc1 (stereo not drawn)
-0.01*,-7.95*,CC(C)N=c1cc2n(-c3ccc(Cl)cc3)c3ccccc3nc-2cc1Nc1ccc(Cl)cc1
-0.06,i,Cc1nccn1CC1CCc2c(c3ccccc3n2C)C1=O (stereo not drawn)
1.28,i,CCOc1ccc(-n2c(COc3ccc(C)cc3)nnc2SCC(N)=O)cc1
0.51,i,COc1ccc(-n2c(NNC(C)=O)nc3sc4c(c3c2=O)CCCC4)cc1
-0.91,i,CN1/C(=C/C=C(C#N)C#N)C(C)(C)c2ccccc21
0.16*,-8.02*,Cc1ccc(C)c(NC(=O)c2sc(Cl)nc2-c2ccccc2)c1
-0.09,i,CCN(CC)S(=O)(=O)c1ccc(C(=O)NC(C)(C)C)cc1
-0.03,i,CCOC(=O)Cn1c(=O)n(Cc2ccc(OC)cc2)c(=O)c2cccnc21
2.01,i,CC1(C)NC(=O)N(CCCOc2ccccc2Br)C1=O
-0.16,i,Cc1ccc(N(CC(=O)NCc2ccco2)C(=O)CNS(=O)(=O)c2ccc(F)cc2)c(C)c1
2.8,i,CCOC(=O)c1c(-c2ccc(C)s2)csc1NC(=O)c1cccs1
-0.07,i,Cc1cc(C)n(CC(=O)N/N=C/c2ccc([N+](=O)[O-])s2)n1
-1.68,i,NNC(=O)c1sc2cc(C(F)(F)F)cnc2c1-c1cccs1
-0.56,i,CN(C)CCn1c(=O)n(Cc2ccco2)c(=O)c2c3c(sc21)CCCCC3
0.26,i,O=C(c1ccc2c(c1)OCO2)N(c1ccc(Br)cc1)C1C=CS(=O)(=O)C1 (stereo not drawn)
-1.45,i,COc1ccc(CCn2c(NN=C3CCCC3)nc3c2c(=O)[nH]c(=O)n3C)cc1
0.41*,-7.67*,O=[N+]([O-])c1cccc(/C=N/Nc2nc(N3CCCCC3)nc(N3CCCCC3)n2)c1
2.76,i,CCCn1c(=O)[nH]c(=O)c2c(C(F)(F)F)cc(-c3ccc(C)cc3)nc21
-1.35,i,O=C(c1ccccc1)N(NC(=O)C(O)(c1ccccc1)c1ccccc1)c1cccc(F)c1
3.25,i,CCOC(=O)Cn1nc(C)c(NC(=O)c2cccc([N+](=O)[O-])c2)c1C
0.1,i,CSc1nc(N2CCN(C)CC2)c2c(c1C#N)CC(C)(C)OC2
1.39,i,CC(C)C(=O)Nc1cccc(C(=O)Nc2ccc3c(c2)OCO3)c1
0.48,i,C=CCNC(=O)/C(C#N)=C/c1ccccc1OCc1ccc(C(=O)OC)cc1
-0.05,i,COc1ccc(NS(=O)(=O)c2cccc(C(=O)N(C)CC(=O)Nc3ccc(C)cc3)c2)cc1
2.16*,-5.65*,O=C(c1cc(-c2ccccn2)nc2ccc(Cl)cc12)N1CCN(CCc2ccccc2)CC1
2.34,i,CCOc1ccc(NC(=O)CSc2nnc(C)n2Cc2ccccc2)cc1
0.29,i,COc1cc(/C=C2\SC(=O)N(CCN)C2=O)ccc1OS(=O)(=O)c1cc(C)ccc1C

Random excerpt: three records from the list
KCNQ2 inh baseline,KCNQ2 inh,Molecule
-0.05,i,COc1ccc(NS(=O)(=O)c2cccc(C(=O)N(C)CC(=O)Nc3ccc(C)cc3)c2)cc1
0.1,i,CSc1nc(N2CCN(C)CC2)c2c(c1C#N)CC(C)(C)OC2
2.34,i,CCOc1ccc(NC(=O)CSc2nnc(C)n2Cc2ccccc2)cc1

Part of the list above, with values under each structure.
The line under a structure holds: KCNQ2 inh baseline | KCNQ2 inh
C=CCNC(=O)/C(C#N)=C/c1ccccc1OCc1ccc(C(=O)OC)cc1
→ 0.48 | i
COc1ccc(NS(=O)(=O)c2cccc(C(=O)N(C)CC(=O)Nc3ccc(C)cc3)c2)cc1
→ -0.05 | i

(list continues)
KCNQ2 inh baseline,KCNQ2 inh,Molecule
-0.4,i,C=CCn1c(SCC(=O)O)nc2sc(CC)cc2c1=O
0.14,i,O=c1c2ccccc2oc2ccc(C#CC3(O)CCCCC3)cc12
0.9,i,N#CCc1ccc(Oc2ncccn2)cc1
-1.96,i,CCOC(=O)C1(S(=O)(=O)c2ccc(Cl)cc2)CCN(Cc2ccccc2)CC1
-1.58,i,COc1cc2c(cc1OC)-c1nnc(-c3cccs3)n1C(C)(C)C2
0.21,i,Cn1c(=O)[nH]c(=O)c2c1nc(N1CCOCC1)n2CCc1ccccc1
0.54,i,COc1ccccc1-n1c(=S)[nH]c2c(sc(=S)n2-c2ccccc2)c1=O
-0.3,i,N#Cc1ccc(OCC(O)CN2CCN(c3ncc(C(F)(F)F)cc3Cl)CC2)cc1 (stereo not drawn)

Full records from above.
O=[N+]([O-])c1cccc(/C=N/Nc2nc(N3CCCCC3)nc(N3CCCCC3)n2)c1 reads KCNQ2 inh baseline: 0.41*; KCNQ2 inh: -7.67*
COc1ccc(S(=O)(=O)N2CCC(C(=O)N[C@H](C(=O)N3CCCC3)C(C)C)CC2)cc1 reads KCNQ2 inh baseline: -0.21; KCNQ2 inh: i
COc1cc(N=c2ssnc2Cl)c(OC)cc1Cl reads KCNQ2 inh baseline: -0.03; KCNQ2 inh: i

The list goes on:
KCNQ2 inh baseline,KCNQ2 inh,Molecule
0.22,i,Cc1cc(Cl)ccc1OCC(=O)NC(=S)Nc1ccccc1N1CCOCC1
0.03,i,Cn1c(/C(C#N)=C2/CCCCCN2)nc2ccccc21
0.04,i,O=C(O)/C(=C\c1ccco1)NC(=O)c1ccco1
0.24,i,Cc1nn(-c2ccccc2)c2c1C(c1cccc([N+](=O)[O-])c1)N(c1ccccc1)C(=O)N2 (stereo not drawn)
1.08,i,C=CCN1CC(C)/C(=N\O)CC1C (stereo not drawn)
2.09,i,CCOc1ncccc1C(=O)N1CCN(S(=O)(=O)c2ccc3ccccc3c2)CC1
0.04,i,Cn1cccc1C(=O)OCc1cc(Cl)cc2c1OCOC2
0.46,i,CCOc1ccc(NC(=O)CSC2=NN3CCCC(=O)N=C3S2)cc1
-0.06,i,CC[N+](CC)(CCCCS(=O)(=O)[O-])CCNP1(=O)C=C(c2ccccc2)OC(c2ccccc2)=C1
0.08,i,COc1ccc(Nc2cc(C)nc3ncnn23)cc1Cl
1.02,i,Cc1cc(C)nc(SCc2ccc(C(=O)N/N=C/c3ccc(C(=O)O)cc3)cc2)n1
1.23,i,O=C(Nc1nnc(COc2ccccc2F)s1)Nc1ccccc1F
1.99,i,Cc1sc2ncnc(N3CCC(C(=O)Nc4nnc(CC(C)C)s4)CC3)c2c1C
0.34,i,Cc1noc(C)c1C(=O)NCc1ccco1
0.84,i,CS(=O)(=O)N1CCc2cc(NC(=O)c3ccc(Cl)cc3Cl)ccc21
-0.13,i,COCCNC(=O)[C@H](C)[C@H]1C[C@]1(C)[C@H](NC(=O)OCc1ccccc1)c1ccccc1
-0.77,i,O=C1N/C(=C/c2cccs2)C(=O)N1Cc1ccc(F)cc1
0.14,i,CC(c1nccs1)N(C)C(=O)c1ccc(OC2CCN(CCc3ccccc3)CC2)cc1 (stereo not drawn)
1.26,i,CCOc1ccc(NC(=O)[C@@H](NC(=O)c2ccccc2)[C@@H](C)CC)cc1
-2.54,i,CCCCOc1ccccc1NC(=O)Cn1c(-c2nonc2N)nc2ccccc21
1.1,i,CCOC(=O)c1cnc2c(cnn2C)c1NCc1ccc(OC)cc1
-1.96,i,COc1ccc(N(CC(=O)NCCSCc2ccco2)S(=O)(=O)c2ccccc2)cc1OC
0.66,i,Cc1c(NC(=O)CSc2ccccn2)c(=O)n(-c2ccccc2)n1C
-0.64,i,Cc1nnc(NC(=O)CSc2nccn2-c2cccc(C)c2C)s1
-3.24*,-6.06*,O=c1c2ccccc2nc(SCc2cc([N+](=O)[O-])cc3c2OCOC3)n1-c1ccccc1
1.14,i,COc1ccc(CCNC(=O)C2CCC(CNS(=O)(=O)c3ccc(F)cc3)CC2)cc1OC (stereo not drawn)
1.92,i,CCO[C@@H]1OC(C(=O)NC2CC2)=C[C@H](C(C)(C)C)[C@H]1CCCO
-0.92*,-7.56*,CCn1c(=O)c(C(=O)NCc2ccc(Cl)cc2)c(O)c2ccccc21
-0.98,i,O=C/C(=C\Nc1ccccn1)c1nc2cc(Cl)ccc2o1
0.29,i,Cc1ccc(N(C(=O)c2ccncc2)C2C=CS(=O)(=O)C2)cc1 (stereo not drawn)
-1.91,i,CCOc1ccc(S(=O)(=O)Nc2ccc(C(=O)N/N=C(\C)c3ccc(-n4ccnc4)cc3)cc2)cc1
0.55,i,O=C(Nc1ccccc1-c1nc2ccccc2s1)c1cccnc1
-0.06,i,CCOC(=O)c1cc(-c2ccc(Cl)cc2)nc2onc(C)c12
-1.16,i,CNS(=O)(=O)c1ccc2ccccc2c1
1.59,i,Cc1ccc2nc(SCC(=O)c3ccc4c(c3)OCO4)[nH]c2c1
1.04,i,O=C1C2C3C=CC(C3)C2C(=O)N1CCN1CCN(S(=O)(=O)/C=C/c2ccccc2)CC1 (stereo not drawn)
0.32,i,COc1ccc(C)cc1S(=O)(=O)N1CCN(C(=O)c2ncoc2-c2ccc(C)cc2)CC1
0.93,i,O=C(CN1CCOc2ccccc21)N1CCC(Cc2ccccc2)CC1
0.33,i,CSc1ccccc1OCc1cc(C(=O)N2CCN(C)C(c3ccccc3)C2)no1 (stereo not drawn)
0.29,i,CCOC(=O)N1CCC(Nc2c(NCCCN(C)Cc3ccccc3)c(=O)c2=O)CC1
1.22,i,Cc1noc(C)c1CSCC(=O)N(CC(C)C)c1c(N)n(Cc2ccccc2)c(=O)[nH]c1=O
2.83,i,Cc1cccc(C)c1N1C(=O)C(Cl)=C(N2CCCC2)C1=O
2,i,O=C(O)CC1Sc2nc3ccccc3n2C1=O (stereo not drawn)
-1.52,i,Cc1cc(NC(=O)c2ccc(C)s2)n(-c2ccccc2)n1
-0.05,i,O=C1c2ccc(Br)cc2C(=O)N1c1ccc(Cl)cn1
1.04,i,Cc1ccccc1C(=O)NNc1ccc(-c2csnn2)cc1
0.6,i,Cc1ccccc1NC(=O)NCC1CCN(C(=O)OC(C)(C)C)CC1
-0.29,i,CCCCC(=O)N1C/C=C\[C@H](c2ccc(OC)cc2)N(Cc2ccc(F)cc2)C(=O)[C@@H]1C
-0.48*,-8.16*,CC(C)(C)C(=O)Nc1c2c(nn1-c1ccccc1)CSC2
-2.1,i,COc1cc(/C=N/n2c(C3CCCCC3)n[nH]c2=S)cc(OC)c1O
-1.82,i,CN1C2CCC1CC(NS(=O)(=O)c1cc(Cl)c(Cl)cc1Cl)C2 (stereo not drawn)
0.23,i,O=[N+]([O-])c1ncccc1OCc1ccc(Br)cc1F
0.98,i,CC(C)CNS(=O)(=O)c1ccc(OCC(=O)Nc2ccc3c(c2)OCCO3)cc1
1.25,i,CCC(=O)Nc1cccc(C(=O)/C=C/c2cc(Br)ccc2OC)c1
-0.53,i,O=C(CNC(=O)c1cccs1)NCC(=O)OCc1cccc(Cl)c1
-0.02,i,CC(=O)N1CCC(C(=O)N2CCN(S(=O)(=O)c3ccc(Cl)s3)CC2)CC1

Remaining list, next part
KCNQ2 inh baseline,KCNQ2 inh,Molecule
-0.15*,-7.77*,CC1CC(C)CN(c2ccc(C(=O)OCC(=O)NC3CCCc4ccccc43)cc2[N+](=O)[O-])C1 (stereo not drawn)
2.05,i,O=C(COc1ccc(CO)cc1)Nc1ccc(F)cc1
0.82,i,COc1ccc(C2C(=O)N(CCc3ccccc3)CC(=O)N2C2CCCCC2)cc1 (stereo not drawn)
0.79,i,CCc1cccc(NC(=O)C2CCN(S(=O)(=O)c3ccc4c(c3)NC(=O)CO4)CC2)c1
